High-throughput results deposited in PubChem by Johns Hopkins Ion Channel Center.
KCNQ2 inh: KCNQ2 channel blockers in CHO-K1 cells – cell-based, FluxOR thallium flux, B-score, primary screen (AID 2156); 310,000 tested, 1.1% active; 20 min; stronger effect = lower value; only compounds with negative scores are shown here; some inactives read as strong as hits; B-score at 10 µM; O88943;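 active means fluorescence ratio B-score at most minus 3 library SDs, with starting brightness B-score within 2 library SDs, cut at about -5.5 in these data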
Target sequence (O88943 whole entry, looked up): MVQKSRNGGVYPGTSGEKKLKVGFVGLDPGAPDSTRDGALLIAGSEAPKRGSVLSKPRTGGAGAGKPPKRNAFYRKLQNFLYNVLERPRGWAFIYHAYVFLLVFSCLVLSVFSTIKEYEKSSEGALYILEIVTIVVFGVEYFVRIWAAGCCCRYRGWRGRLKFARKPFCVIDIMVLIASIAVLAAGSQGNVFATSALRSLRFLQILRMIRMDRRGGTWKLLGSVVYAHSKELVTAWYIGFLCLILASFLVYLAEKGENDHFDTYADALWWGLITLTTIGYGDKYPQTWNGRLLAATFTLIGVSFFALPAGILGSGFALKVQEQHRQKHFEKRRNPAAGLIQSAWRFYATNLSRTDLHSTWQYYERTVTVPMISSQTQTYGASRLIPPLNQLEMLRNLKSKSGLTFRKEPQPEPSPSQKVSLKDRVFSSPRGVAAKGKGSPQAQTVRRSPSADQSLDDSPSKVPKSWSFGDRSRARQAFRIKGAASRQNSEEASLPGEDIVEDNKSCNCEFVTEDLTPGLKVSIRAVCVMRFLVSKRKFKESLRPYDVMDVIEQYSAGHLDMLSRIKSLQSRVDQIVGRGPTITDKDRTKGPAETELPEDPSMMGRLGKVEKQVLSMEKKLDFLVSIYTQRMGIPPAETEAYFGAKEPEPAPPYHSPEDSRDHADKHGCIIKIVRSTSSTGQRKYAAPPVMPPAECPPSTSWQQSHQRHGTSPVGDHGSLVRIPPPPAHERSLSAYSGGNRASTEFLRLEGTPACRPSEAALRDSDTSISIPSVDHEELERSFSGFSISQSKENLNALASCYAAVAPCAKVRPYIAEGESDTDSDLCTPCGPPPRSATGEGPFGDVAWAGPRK
KCNQ2 inh baseline: recorded beside KCNQ2 inh, whose call it bears; B-score; measured here: initial fluorescence intensity artifact check;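 brightness before thallium and not channel activity; 0 = typical well and far values either way flag optical interference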
* hit, by the source's call; i = inactive.

Second line of a record: KCNQ2 inh, KCNQ2 inh baseline
- CCCSc1ccc2nc(NC(=O)OC)[nH]c2c1
    i, -0.4
- Cc1ccc(S(=O)(=O)NC(=O)N2CCCC(C)(C)C2)cc1
    i, 0.05
- CC1CCN(C2CCN(S(=O)(=O)c3ccc(C(F)(F)F)cc3)CC2)CC1
    i, 0.45
- Nc1cc(Cl)ccc1C(=O)OCC(=O)NC(=O)NCc1ccccc1
    i, 0.21
- O=C(O)/C=C\C(=O)Nc1ccccc1C#Cc1ccccc1
    i, 1.4
- CCOC(=O)Oc1ccc(/C=C2\N=C(C)OC2=O)cc1
    i, -0.91
- O=C(Cc1ccc(Cl)cc1)NNC(=S)NC(=O)c1cccs1
    i, 0.12
- C=CCn1c(N)cc(=O)nc1SCC(=O)Nc1ccc2ccccc2c1
    i, 1.8
- COc1ccc(-n2c(Cc3cccn3C)nnc2SCC(N)=O)cc1
    i, -1.3
- COc1ccc(OC)c(N(CC(=O)N2CCc3ccccc3C2)S(C)(=O)=O)c1
    i, -0.13
- O=C1NC(Cc2c[nH]c3ccccc23)C(=O)N1CCOc1ccc(F)cc1 (stereo unspecified)
    i, -1.6
- CN1/C(=C\C(=O)Nc2ccc(F)cc2)C(C)(C)c2ccccc21
    i, -1.3
- COC(=O)C1=C(C)N(Cc2ccc(C)cc2)C(=O)/C1=C\c1cc(OC)c(OC)c(OC)c1
    i, -1.7
- CC(C)(C)Sc1ccc2nc3c(n2c1)CCCC3
    i, 0.47
- COc1ccc(/C=C/C(=O)Nc2ccccc2Cl)cc1S(=O)(=O)N1CCOCC1
    i, -0.01
- OCC1(Cc2cccc(C(F)(F)F)c2)CCN(Cc2cc(F)cc(F)c2)CC1
    i, -0.31
- CCc1cc2c(=O)c(-c3ccc4c(c3)OCCO4)coc2cc1OS(C)(=O)=O
    i, 2.5
- Cc1cccc(C)c1Nc1nnc(SCC(=O)Nc2cc(S(=O)(=O)N3CCCCC3)ccc2Cl)s1
    i, -0.86
- COc1ccc(NS(=O)(=O)c2ccc3[nH]c(=O)[nH]c3c2)cc1OC
    i, -1.5
- CC(=O)Nc1ccc(C(=S)NCc2ccco2)cc1
    i, 0.1
- O=C(Nc1ncccc1Cl)c1cc2ccccc2o1
    i, -0.27
- CCOC(=O)c1c(NC(=O)c2ccc(N3C(=O)C4C5C=CC(C5)C4C3=O)cc2)sc2c1CCCC2 (stereo unspecified)
    i, 1.1
- COc1ccc(/C(C)=N/NC(=O)CNC(=O)c2ccncc2)cc1
    i, -0.7
- CNS(=O)(=O)c1ccc(NC(=O)c2cc(-c3ccncc3)nc3ccc(Cl)cc23)cc1
    i, -0.6
- Cc1ccc(S(=O)(=O)Nc2nc3ccccc3nc2NCC2CCCO2)cc1 (stereo unspecified)
    i, -0.51
- COc1cccc(OCC(O)CNC(C)c2ccccc2)c1 (stereo unspecified)
    i, 0.16
- Cc1noc(C)c1CCC(=O)N1CCCC(N2CCN(c3ccc(F)cc3)CC2)C1 (stereo unspecified)
    i, 3.9
- O=C(NCc1ccco1)C1CC(c2ccccc2C(F)(F)F)=NO1 (stereo unspecified)
    i, -0.56
- O=C(c1ccc2c(=O)n(-c3ccccc3)c(=S)[nH]c2c1)N1CCCCC1
    i, 0.46
- CC1CCN(c2nc(-c3cccnc3)nc3scc(-c4ccccc4)c23)CC1
    i, -0.46
- Cc1ccc(N/C=C/C(=O)c2cccs2)cc1
    i, 2
- CN(C)S(=O)(=O)c1cccc(COC(=O)c2ccc3c(c2)OCO3)c1
    i, 0.25
- O=C(O)[C@H](CO)Nc1ncnc2sc3c(c12)CCC3
    i, 0.67
- Cc1ccc(NC(=O)CN(C)C2CCCCC2)cc1Cl
    i, -0.39
- COCC(N)(c1ccccc1)c1nc2ccccc2n1C (stereo unspecified)
    i, -0.72
- C=CCn1cnc2c(nnn2Cc2ccc(F)cc2)c1=O
    i, 1.9
- Cc1ccc(NC(=O)c2ccc(NS(=O)(=O)c3c(C)noc3C)cc2)cc1C
    i, 0.91
- CCC1(C)NC(=O)N(CC(=O)Nc2sc3c(c2C(N)=O)CCC3)C1=O (stereo unspecified)
    i, 0.47
- O=C(O)c1cc2nc3c(c(C(F)(F)F)n2n1)CCCC3
    i, 0.73
- Cc1occc1C(=O)NNC(=O)Nc1ccc([N+](=O)[O-])cc1
    i, -0.33
- Cc1nc2cccnc2nc1C
    i, 0.03
- O=C(/C=C/Nc1cccc(O)c1)c1ccccc1
    i, -1.4
- O=C(c1cccs1)N1CCC(Cc2ccccc2)CC1
    i, 2.3
- CCCOc1cccc(C(=O)N2CCN(C(=O)C3CCCO3)CC2)c1 (stereo unspecified)
    i, 1.7
- CCC(C)NC(=O)c1ccccc1NC(=O)CN(c1ccc(OC)cc1)S(C)(=O)=O (stereo unspecified)
    i, 0.69
- COc1ccccc1N1C(=O)c2cccc3c(N(C)CCO)ccc(c23)C1=O
    i, 17
- COc1cc(C2NCC(c3ccc(Cl)cc3Cl)c3c2[nH]c2ccccc32)cc(OC)c1OC (stereo unspecified)
    i, 0.71
- COc1cc(C(=O)NC(=S)NNC(=O)c2cnccn2)cc(OC)c1OC
    i, -0.07
- S=C(Nc1ccccc1)N1N=CCC1c1ccccc1 (stereo unspecified)
    i, 0.33
- O=C(CCCCn1c(=S)[nH]c2ccsc2c1=O)NCc1ccco1
    i, -0.78

Following part.
Second line of a record: KCNQ2 inh, KCNQ2 inh baseline
- Cc1cc(C(=O)Nc2ccccc2)c2ccccc2n1
    i, -0.08
- COc1cc(NS(=O)(=O)c2ccc(NS(=O)(=O)c3ccc(C)cc3)cc2)nc(OC)n1
    i, -0.22
- COc1nc(N/N=C/c2ccccc2F)nc(N2CCCCC2)n1
    i, 2
- CC(C)(C)n1nnnc1C(c1cccs1)N1CCN(C(=O)c2ccco2)CC1 (stereo unspecified)
    i, -1.9
- COc1cc(-c2nnc(NC(=O)CCS(=O)(=O)c3ccccc3)o2)cc(OC)c1OC
    i, -2.3
- CN(CCc1ccccn1)C1CC(=O)N(c2ccc(Cl)cc2)C1=O (stereo unspecified)
    i, -0.27
- CCOC(=O)C(C)Oc1cccc2c(=O)n(CC(=O)N3CCCc4ccccc43)ccc12 (stereo unspecified)
    i, 1.1
- O=C(Nc1ccccc1C(=O)N1CCN(Cc2ccccc2)CC1)c1ccccn1
    i, -0.48
- Cc1cc(C)c2nc(/N=C(\N)NC(=O)c3ccccc3)nc(C)c2c1
    i, 0.06
- CCCCS(=O)(=O)NC1=NCN(CCO)CN1
    i, 0.08
- CC(C)OCCCn1c(=O)c2ccccc2n2c(CCC(=O)N3CCN(c4ccccn4)CC3)nnc12
    i, -0.61
- Cc1coc2c1c(C)cc1oc(=O)c(CC(=O)N[C@@H](CC(C)C)C(=O)O)c(C)c12
    i, 0.76
- O=C(Oc1ccc2ccccc2c1Cl)N1CCCCCC1
    i, 0.68
- CN(CCOc1ccc(Br)cc1)CC(O)COc1ccc(C#N)cc1 (stereo unspecified)
    i, 0.48
- CC(C)(C)c1ccc(-n2ncc3c2CCCC3NC(=O)CN2CCCCC2=O)cc1 (stereo unspecified)
    i, -0.83
- Cc1cccc(Cn2c(SCCN3CCOCC3)nc3c2c(=O)n(C)c(=O)n3C)c1
    i, -0.8
- CCn1c(SCC(=O)N/N=C/c2c[nH]c3ccccc23)nnc1-c1ccc(C)cc1
    i, 0.85
- CCc1nc(NCC(C)C)c(C#N)c2c1COC(C)(C)C2
    i, 0.03
- CCC(=O)N1CCN=C1SCc1cccc(F)c1
    i, 0.83
- C=CCSc1nnc(-c2ccncc2)n1-c1ccc(OCC)cc1
    i, 0.45

Among those listed so far, these contain two or more sulfur atoms.
Second line of a record: KCNQ2 inh, KCNQ2 inh baseline
- O=C(Cc1ccc(Cl)cc1)NNC(=S)NC(=O)c1cccs1
    i, 0.12
- Cc1cccc(C)c1Nc1nnc(SCC(=O)Nc2cc(S(=O)(=O)N3CCCCC3)ccc2Cl)s1
    i, -0.86
- O=C(CCCCn1c(=S)[nH]c2ccsc2c1=O)NCc1ccco1
    i, -0.78
- COc1cc(NS(=O)(=O)c2ccc(NS(=O)(=O)c3ccc(C)cc3)cc2)nc(OC)n1
    i, -0.22

New compounds follow.
Second line of a record: KCNQ2 inh, KCNQ2 inh baseline
- N=c1sccn1CC(=O)Nc1ccccc1Sc1ccccc1
    i, 0.05
- Cc1ccc(NC(=O)/C(C#N)=C/c2ccc(Sc3nc(C)cc(C)n3)o2)cc1
    i, -1.3
- [O-]c1n[n+](-c2ccc(Cl)cc2Cl)cc2ccccc12
    i, 0.79
- COC(=O)c1ccc(NC(=O)COC(=O)c2cccc3c(=O)c(C)c(-c4ccccc4)oc23)cc1
    i, 0.23
- O=C1OCc2cc(NC(=O)C3CCCCC3)ccc21
    i, 0.03
- CCOC(=O)c1cc2sc(C)cc2n1C(C)C(=O)OCC (stereo unspecified)
    i, -0.24
- Cc1ccc(C(=O)N[C@H](C(=O)OCc2nnc(-c3ccccc3)o2)C(C)C)cc1
    i, 0.75
- Cc1ccc(N2CCN(/N=C/c3ccncc3)CC2)cc1
    i, -1.1
- O=S(=O)(NCc1ccccc1)c1cccc(S(=O)(=O)N2CCOCC2)c1
    i, -1.9
- CCSc1ncc(Cl)c(C(=O)Nc2ccccc2OC)n1
    i, -2.4
- Cc1cc(F)ccc1NC(=O)C1CCN(C(=O)Nc2ccccc2)CC1
    i, 0.21
- O=C(N/N=C/c1ccc[nH]1)c1cc2ccccc2cc1O
    i, -2.8
- Cc1cccc(C)c1NC(=S)NC(C)(C)CO
    i, 0.84
- O=C(NCc1ccco1)c1ccccc1NS(=O)(=O)c1ccc(Cl)s1
    i, -1.1
- O=C1C(=O)N(Cc2cccnc2)C(c2ccccn2)/C1=C(/O)c1ccc(F)cc1 (stereo unspecified)
    i, 0.7
- COC(=O)C1=C(C)Nc2[nH]c(=S)[nH]c(=O)c2C1c1ccc(O)cc1 (stereo unspecified)
    i, 0.34
- COc1cccc(/C=C2/Sc3ccc(C(=O)NCCN4CCCCCC4)cc3NC2=O)c1
    i, -0.5
- COc1cccc(/C=C2\CCC(C3CCCC3)C2=O)c1OC (stereo unspecified)
    i, 0.02
- O=C(COC(=O)C1CCN(C(=O)c2ccc(Cl)cc2)CC1)NC1CCS(=O)(=O)C1 (stereo unspecified)
    i, 0.82
- COc1ccc(NC(=O)c2ccccc2NC(=O)CSc2ccccc2)cc1
    i, -0.01
- O=C(NCc1cccc(C(F)(F)F)c1)c1cccc(S(=O)(=O)NCc2ccccc2)c1
    i, 0.02
- CCOc1ccc(N/N=C(/C#N)C(N)=O)cc1
    i, 1.3
- CCC(C)(C)NC(=O)C(c1cccc(OC)c1OC)N(CC(C)C)C(=O)CCC(=O)Nc1cc(C)on1 (stereo unspecified)
    i, -0.47
- CCCn1c2c(c(O)c(C(=O)Nc3nc4ccccc4s3)c1=O)CCCC2
    i, 1.5
- COc1cc2c(cc1OC)C1=C(C#N)CC/C(=N\S(=O)(=O)c3cccc(Cl)c3)N1CC2
    i, -1.2
- COCCCn1cnnc1SCC(=O)Nc1ccc(S(=O)(=O)N2CCCC2)cc1
    i, -1.1
- CC(=O)Nc1ccc(S(=O)(=O)c2ccc([N+](=O)[O-])cc2)cc1
    i, 0.25
- Cc1nn(CC2CCCCC2)c(N)c1-c1ccccc1
    i, -0.97
- COc1ccc2ccccc2c1CNCc1ccccn1
    i, 3.1
- O=C(COc1ccccc1[N+](=O)[O-])N(Cc1ccccc1)c1ccccn1
    i, 0.87
- Cc1csc(NC(=O)c2c(-c3c(Cl)cccc3Cl)noc2C)n1
    i, -0.68
- O=C(CCCN1C(=O)/C(=C/c2ccccc2Cl)SC1=S)NNC(=O)c1ccc(Cl)cc1Cl
    i, -0.84
- CN1CCN(C2=Cc3cc(Cl)ccc3Sc3cc(F)ccc32)CC1
    i, 0.01
- CC1CCC2C(=O)N(c3ccc(C(=O)Oc4cccc5cccnc45)cc3)C(=O)C2C1 (stereo unspecified)
    i, 0.12
- O=C(CN1C(=O)NC2(CCCC2)C1=O)Nc1cc(C(F)(F)F)ccc1N1CCCCC1
    i, -0.35
- CC1(OC(=O)CCc2ccccc2)C(=O)C=C2C=C(c3ccc(C#N)cc3)N(Cc3ccccc3)C=C2C1=O (stereo unspecified)
    i, 0.12
- CC(=O)c1c(N2CCOCC2)nc(=S)n(-c2ccc([N+](=O)[O-])cc2)c1C
    i, 0.1
- COc1ccc2c(CCNC(=O)Nc3ccccc3)c[nH]c2c1
    i, -1.6
- Nc1sc(-c2ccccc2)cc1C(=O)N/N=C/c1ccc(Cl)cc1
    i, -1.1
- Cc1c(C)c2ccc(OC(C)C(=O)NCCN3CCOCC3)c(C)c2oc1=O (stereo unspecified)
    i, 0.01
- CC(=O)N(Cc1cccs1)Cc1cc2cc(C)c(C)cc2nc1Cl
    i, 1.6
- COc1ccc(NC(=O)N2CCCc3cc(C)ccc32)c(OC)c1
    i, 0.07
- O=C(NN=C1CCCCC1)Nc1ccccc1Cl
    i, 0.1
- O=C(CC1SC(N2CCCC2)=NC1=O)Nc1ccc(C(=O)Nc2ncccc2O)cc1 (stereo unspecified)
    i, 1.6
- COCCNc1nnc(SCC(=O)Nc2cc(-c3ccccc3)nn2-c2ccccc2)s1
    i, -0.15
- OC1CCN(Cc2ccc3ccccc3c2)CC1
    i, 1.5

Among those listed so far, these contain a nitro group on carbon.
Second line of a record: KCNQ2 inh, KCNQ2 inh baseline
- Cc1occc1C(=O)NNC(=O)Nc1ccc([N+](=O)[O-])cc1
    i, -0.33
- CC(=O)Nc1ccc(S(=O)(=O)c2ccc([N+](=O)[O-])cc2)cc1
    i, 0.25
- O=C(COc1ccccc1[N+](=O)[O-])N(Cc1ccccc1)c1ccccn1
    i, 0.87
- CC(=O)c1c(N2CCOCC2)nc(=S)n(-c2ccc([N+](=O)[O-])cc2)c1C
    i, 0.1

The list is partial; count on the stated rates, not on these rows.
